# NPYLR7 agonist = agonists of mosquito NPYLR7 receptor, primary screen, cell-based, Aedes aegypti, calcium fluorescence, mosquito biting behavior | HEK293T NPYLR7/Galpha15, GCaMP6s calcium fluorescence | Aedes aegypti neuropeptide Y-like receptor 7 (NPYLR7) | 270,000 tested, 0.15% active | activation, % at 10 µM | AID 1259423, 2018; in the data active = activation above about 40%;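 note: 0% = vehicle and 100% = reference agonist at the receptor; some compounds past the cut are filed as inactive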
# NPYLR7 agonist max-min = further read-out of NPYLR7 agonist, marked with its call; activation, %; measured here: Max-Min RFU normalised activation; some inactives read as strong as hits;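 span of the calcium signal over five minutes; 0% = vehicle and 100% = native peptide agonist; compound fluorescence can raise it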
# * hit, by the source's call; & = joins results of further samples. Not all compounds are listed (hit frequency here may not be typical).
molecule,NPYLR7 agonist,NPYLR7 agonist max-min
CC(NC(=O)c1ccc[nH]1)c1ccc(Oc2cccnc2)c(F)c1 (stereo not given),-0.5,-3.6
CCc1ccc(NC(=O)Cn2nc3ccc(SC4CCCCC4)nn3c2=O)cc1,1.9,1.1
O=C(Nc1ccsc1)N1CCCC(Cn2cc(CCO)nn2)C1 (stereo not given),5.5,3.2
C=CCN(Cc1nccn1Cc1cccc(F)c1)C(=O)c1ccccc1F,2.0,11.0
Cc1cnc(-n2cnnc2)c(-c2ccc3c(c2)OCCO3)c1,-2.3,-2.4
CN(C(=O)Nc1ccccc1)C1CCN(c2ccc(F)cc2)CC1,6.6,5.5
Cn1c(=O)n(CC(=O)N2CCN(Cc3ccccc3)CC2)c2ccccc21,-4.1,-5.0
Cc1ccn2c(CNCCN3CCNC3=O)c(C(=O)N3CCCCCC3)nc2c1,8.4&-10.1,5.7&-14.0
CCc1nc2n(n1)C(=O)C(C(c1ccco1)N1CCN(c3ccccc3F)CC1)S2 (stereo not given),4.4,1.3
CN(Cc1ccccc1Br)S(=O)(=O)c1ccc(C#N)cc1,6.8,4.8
O=[N+]([O-])c1ccc(O)c2ncccc12,-0.6&3.2,2.0&1.4
OC(Cc1ccccc1)CN(Cc1cccc(F)c1)CC1CC(c2ccc(F)cc2)=NO1 (stereo not given),-2.1,1.7

# 3 compounds already listed, sorted by molecular weight, high to low:
molecule,NPYLR7 agonist,NPYLR7 agonist max-min
CCc1nc2n(n1)C(=O)C(C(c1ccco1)N1CCN(c3ccccc3F)CC1)S2 (stereo not given),4.4,1.3
CCc1ccc(NC(=O)Cn2nc3ccc(SC4CCCCC4)nn3c2=O)cc1,1.9,1.1
O=[N+]([O-])c1ccc(O)c2ncccc12,-0.6&3.2,2.0&1.4

# Additional structures:
molecule,NPYLR7 agonist,NPYLR7 agonist max-min
CC(=O)CSc1nnc2c(n1)[nH]c1ccccc12,-2.4,-6.7
CCOC(=O)c1cnc2cc(C(F)(F)F)ccc2c1Nc1ccc(C(N)=O)cc1,6.9,5.1
Cc1cccc(C2Nc3ccccc3N=C3CC(c4ccccc4)CC(=O)C32)c1 (stereo not given),20.9,16.7
O=C(c1cc2n(n1)CCN(Cc1ccc(F)cc1)C2=O)N1CCC(n2c(=O)[nH]c3ccccc32)CC1,0.3,4.6
Cc1cc(C)n(CCC(=O)N2CCC(C(=O)NCc3ccccn3)CC2)c(=O)n1,4.3,2.5
O=C1c2ccccc2C(=O)N1CN(C(=O)COc1ccccc1)c1ccccc1,19.9,18.6
O=c1c2c(nc3n1CCOC3)sc1c(O)c(Br)ccc12,1.5,0.1
Cc1ccsc1-c1nc(CN(C)Cc2nnc(-c3ccccc3)o2)c(C)o1,16.8,7.4
CCN1CCN(S(=O)(=O)c2ccc(OC)c(N3CCN(C(=O)c4ccc(F)cc4C(F)(F)F)CC3)c2)CC1,24.5,14.9
Cc1ccc(C2c3ccsc3CCN2C(=O)CN(C(=O)/C=C/c2ccc([N+](=O)[O-])cc2)C2CC2)cc1 (stereo not given),-2.8,-1.0
CC(Sc1ncccc1C(N)=O)C(=O)O (stereo not given),0.1,5.8
Cc1cc(-c2csc(N3CCN(C)CC3)n2)c(C)n1Cc1ccco1,3.2,11.3

# Record cards, as listed above:
# Listed for CC(=O)CSc1nnc2c(n1)[nH]c1ccccc12 : NPYLR7 agonist: -2.4; NPYLR7 agonist max-min: -6.7
# Listed for O=C(Nc1ccsc1)N1CCCC(Cn2cc(CCO)nn2)C1 (stereo not given) : NPYLR7 agonist: 5.5; NPYLR7 agonist max-min: 3.2

# Next records follow:
molecule,NPYLR7 agonist,NPYLR7 agonist max-min
CCn1cc(Nc2nc3ccccc3s2)cn1,-1.4,-5.0
O=C(NCc1ccco1)C1CC2CCCC(C1)C21SCCS1 (stereo not given),-0.6,-1.0
Cc1ncc(-c2cc(C(=O)N3CCN(C)C(=O)C3C)c3cccc(C)c3n2)cn1 (stereo not given),-5.0,-7.8
CCN(Cc1ccccc1)Cc1nc2scc(-c3ccc(Cl)cc3)c2c(=O)[nH]1,-2.1,-8.1
O=S(=O)(NCc1ccc(N2CCCC2)cc1)c1cccc(Br)c1,7.3,4.1
OCCN1CCN(c2nc(Nc3ccccc3)c3nccnc3n2)CC1,2.4,3.8
O=C(C1CCCN1S(=O)(=O)c1ccccc1)N1CCN(c2nccs2)CC1 (stereo not given),18.6,15.6
O=C(NCCn1nc(-c2ccc(Cl)cc2)ccc1=O)c1ccccc1C(F)(F)F,-1.4,-2.7
O=C1C2C(C(=O)N1c1ccccc1[N+](=O)[O-])C1C=CC2C12CC2 (stereo not given),-3.2,-5.9
COc1ccc(C(=O)CSc2n[nH]c(C)n2)cc1OC,3.3,-0.4
Cc1ccc2nc(-c3ccc(N(C)C)cc3)c(NC(C)(C)CC(C)(C)C)n2c1,-4.2,-0.9
CC(C)c1ccc(NC2CCCN(C(=O)CCc3cnccn3)C2)cc1 (stereo not given),5.4&-3.9,2.8&-6.7
CC(CCc1ccccc1)NC(=O)c1c(O)nc2sccn2c1=O (stereo not given),-1.8,0.6
CC1CC1C(=O)NCc1ccc(Oc2ccc(F)cc2)cc1 (stereo not given),7.5,7.4
CNC(=O)NCCN1CCCC1=O,13.5,7.8
O=C(c1ccc(CO)o1)N(Cc1cccc(Cl)c1)C1CC1,8.0,5.5
COCCOCC(=O)N1CCC(n2c(=O)oc3ccc(OC)cc32)CC1,30.7,33.9
CCN1CCN(C2=C(c3c(C)[nH]n(-c4cccc(Cl)c4)c3=O)C(=O)N(c3ccc(C)cc3)C2=O)CC1,-1.2,-5.9
C=CCC1(CC=C)CCCN1C(=O)CC1C(=O)NCCN1C(C)C (stereo not given),2.3,0.9
Cc1ccc(Cl)cc1NC(=O)CN1C(=O)c2cccc([N+](=O)[O-])c2C1=O,-3.6,-9.9
COc1ccc(N2CCN(c3cc(C(=O)N4CCC4)c4ccccc4n3)CC2)cc1,10.8,8.9
O=C1/C(=C/c2ccc(Cl)cc2)C=C(c2ccccc2)N1c1ccc(Cl)cc1,-0.5,1.7
CCN(CC)C(=O)Cn1cnc2c(nnn2C)c1=O,0.1,12.2
Cc1nn(C)c(C)c1CC(=O)NCc1cccc(COC(C)(C)C)c1,5.8,3.5
Cc1cc(C)n(C2CCN(C(=O)c3cnn4c3CCCC4)C2)n1 (stereo not given),-2.2,-2.1
CCCCCCn1c(=S)[nH]c2c1c(=O)n(C)c(=O)n2C,-6.9,-8.1
CSc1cccc(NC(=O)CCS(=O)(=O)Cc2cccnc2)c1,-5.2,-6.4
CCC(C(=O)N1CCCC1)n1c(=O)n(Cc2ccccc2)c(=O)c2ccccc21 (stereo not given),-2.6,9.3
COc1cc(OC)c(Br)c(-n2c(C(C)N(CCc3ccccc3)C(=O)C3CCC3)nc3ccccc3c2=O)c1 (stereo not given),11.5,7.7
CCOC(=O)C1=C(C)N=c2s/c(=C/c3ccc(F)cc3)c(=O)n2C1c1ccccc1 (stereo not given),-4.1,-9.1
Cc1ccc(N2CC(O)(c3cccs3)[N+]3=C2CCCCC3)cc1 (stereo not given),-4.4,-6.7
O=S(=O)(NCc1ccco1)c1ccc(Cl)c(Cl)c1,3.5,2.0
O=C(N=C1c2ccccc2CN1c1cccc([N+](=O)[O-])c1)Nc1ccc(Cl)cc1,-8.6,-10.1
CCOC(=O)[C@@H]1[C@H](c2ccccc2)[C@@H](NCCOCc2ccccc2)[C@H]2CCCCN21,6.2,18.8
O=C(N[C@@H]1CCCCC1NC(=O)C1CCN(C(=O)CCc2ccccc2)CC1)c1ccc(F)cc1 (stereo not given in full),0.6,4.1
CCC(C)NC(=O)c1cc(-c2cccc(OC)c2)n2nc(C(C)(C)C)cc2n1 (stereo not given),26.0,17.9
CC1CCc2sc(-c3nnc(SC(C)C(=O)NC4CC4)o3)cc2C1 (stereo not given),5.7,3.2
c1ccc(C(Cn2ccnc2-c2cccnc2)N2CCCCCC2)cc1 (stereo not given),-1.7,-5.4
COc1ccc(-c2oc3ccccc3c(=O)c2O)cc1,10.1,12.5
CN(C)S(=O)(=O)CCNC(=O)c1cc(C2CC2)[nH]n1,-3.2,11.8
Cc1nc(N2CCCCC2)ncc1C(=O)N(C)Cc1cnn(C)c1C,-5.5,-7.7
CC(C)c1nc(C2CCCN2C(=O)c2cc(C(N)=O)cs2)no1 (stereo not given),-2.8&2.2,-1.5&-1.0
Oc1c(Cl)cc(Cl)c2ccc(N/N=C\c3ccncc3)nc12,-5.1,-9.3
COc1ccc(C(=O)N2CCN(c3cccc(C)c3C)CC2)cc1OC,-5.3,-10.7
COC(=O)c1cc(C)sc1NC(=S)Nc1ncn(Cc2ccc(F)cc2Cl)n1,-1.6,0.9
CC[n+]1cc(-c2ccc3ccccc3n2)cc2ccccc21,0.7,5.5
COC(=O)C1(C(=O)N[C@@H]2CCCc3ccccc32)CC1,-6.7,-9.5
CCOC(=O)c1c(NC(=O)N2CCCC(C(=O)OCC)C2)sc(C)c1C (stereo not given),-0.6,-3.5
CCCCCCCN(CC)CCCC(O)c1ccc(NS(C)(=O)=O)cc1 (stereo not given),-3.0,-10.7
CCN1CCc2c(sc(NC(=O)c3ccc(OC)cc3)c2-c2nc3ccccc3s2)C1,9.7,7.2
OCCC1CN(Cc2cccc3ncccc23)CCN1C1CCCC1 (stereo not given),0.9,-3.0
CNC(=O)c1coc(N2CCN(Cc3ccccc3C#N)C2=O)n1,0.5,-0.6
O=C1O[C@@H]2CN(Cc3cccnc3)C[C@@H]2N1CCCN1CCOCC1,3.4,9.2
COc1cccc(C(=O)N2CCN(C(=O)COc3ccccc3)CC2)c1,4.2,16.1
Cc1cc(C(=O)N2CC[C@H](CO)[C@@H](O)C2)c2c(C)nn(C)c2n1,-0.2,-6.1
Oc1ccc(N=Nc2ncn[nH]2)c(O)c1,15.4,15.5
Cc1ccc(C)c(NC(=O)Nc2c[nH]c3ccccc23)c1,1.7,-5.3
Cc1cc(C)c(-c2ccc(C(O)CN3CCOCC3)cc2)c(C)c1 (stereo not given),3.2,10.0
COc1ccc(-c2nnc3ccc(OCCNC(=O)Nc4cccc(C)c4)nn23)cc1OC,7.0,4.9
CCOC(=O)c1c(NC(=O)c2ccc(F)cc2)sc(C(=O)Nc2ccccc2C)c1C,-2.3,1.9

# The listing continues.
molecule,NPYLR7 agonist,NPYLR7 agonist max-min
COc1ccc(OC)c(S(=O)(=O)NC(=O)C2(C)CCN2C(=O)Cc2ccc(Cl)cc2Cl)c1 (stereo not given),2.5,-2.0
CCN(CC)C1=C(c2c(C(F)(F)F)[nH]n(-c3ccccc3)c2=O)C(=O)N(c2cc(C)ccc2OC)C1=O,5.0,19.7
O=S(=O)(c1ccc(N2CCCC2c2ccc3c(c2)OCCCO3)nc1)N1CCOCC1 (stereo not given),1.8,4.4
CNC(=O)N1CCCN(C(=O)CCc2ccccc2)CC1,-2.8,-3.0
Cc1c(C(=O)NCC(C)C)sc(=O)n1Cc1ccc(S(C)(=O)=O)cc1,9.6,5.8
CCCCCCCCN=C(NC(=O)c1ccc(OC)cc1)OCCOC,18.4,12.9
CNC(=O)CN(C)C(=O)c1cc(C)n(-c2ccc(Br)cc2)c1C,2.4,1.8
COc1ccccc1C(=O)N1CCC2(CC1)C(=O)N(CC(=O)Nc1cccc(Cl)c1)CN2c1ccccc1,18.9,17.7
COc1cccc(C=C2SC(=S)NC2=O)c1O,7.7,1.3
Cc1sc2nc(CCc3ccccc3)nc(N3CCN(S(=O)(=O)c4ccc(F)cc4)CC3)c2c1C,-1.6,3.0
CCCCN(CC(=O)Nc1c(-c2ccccc2)c(C)nn1-c1ccc(C)cc1)C(=O)c1cccs1,-3.8,1.9
O=C1C(Cc2ccccc2)N=C2c3ccccc3N=C(SCc3cc(=O)n4ccccc4n3)N12 (stereo not given),9.6,5.2
Cn1c(CCC(=O)N2CC(C(=O)N3CCCCC3)Oc3ccccc32)nc2ccccc2c1=O (stereo not given),1.6,-0.4
Cc1ccc(CN(Cc2ccc3c(c2)OCO3)C(=O)CNCCCN2CCOCC2)o1,-6.7,1.9
Cc1nc2n(n1)C(=O)C(C(c1cccc(Cl)c1)N1CC(C)CC(C)C1)S2 (stereo not given),-5.3,-7.3
O=C(CCc1cc2ccccc2o1)NC1=NCCS1,11.6,9.2
CC(C)(C)NC(=O)CN1CCC(CNCc2cccc(C#N)c2)CC1,2.9,-16.8
COC(=O)c1[nH]ncc1CN(C)C1CCCc2ccccc21 (stereo not given),-2.0,-0.6
OC(CSc1nnnn1C1CCCC1)c1cccc(Br)c1 (stereo not given),-17.4,-16.9
CCc1cc(CN2CCN(C)CC2)c(NC(=O)c2ccccc2)s1,-4.2,-6.8
COC(=O)c1cccc(Oc2ccccc2C(C)=O)c1,4.4,-0.8
c1ccc(-c2nnc(Oc3ccc4ccccc4c3)c3ccccc23)cc1,-4.5,-9.6
CCc1cc2c(=O)n(CCN3CCNCC3)cnc2s1,1.5,-0.2
COCCNC(=O)c1nn(-c2ccc(C)cc2)c(=O)n(Cc2cccc(Cl)c2)c1=O,7.3,10.5

# Retrieved by structure from above (3):
molecule,NPYLR7 agonist,NPYLR7 agonist max-min
Cc1ccc(CN(Cc2ccc3c(c2)OCO3)C(=O)CNCCCN2CCOCC2)o1,-6.7,1.9
O=C(CCc1cc2ccccc2o1)NC1=NCCS1,11.6,9.2
COC(=O)c1cccc(Oc2ccccc2C(C)=O)c1,4.4,-0.8
